Hedgehog – Drosophila hedgehog isoform A inhibitors, primary screen, biochemical, plate reader, single concentration (AID 588832); Biochemical plate reader assay, Hedgehog inhibition; stronger effect = higher value; 8,000 tested, under 10 active; inhibition, % at 30.3 µM; in the data active means inhibition from about 57%;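 further: 0% = neutral control wells and 100% = positive control wells; cholesterol-driven self-cleavage of fly hedgehog protein by fluorescence polarization; read one hour after cholesterol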
Active calls of the source: *.

compound,Hedgehog
COc1ccc2c(c1)c(=O)oc1c(C)c(OC(C)C(=O)NCC3CCC(C(=O)O)CC3)ccc12 (stereo not drawn),4
CC(=O)OC1c2ccccc2C(=O)N1c1ccccc1C (stereo not drawn),4
CCOC(=O)c1ccccc1NC1c2ccccc2C(=O)N1c1ccc(C)cn1 (stereo not drawn),2
CCc1ccc(NC(=O)[C@H](Cc2c[nH]c3ccccc23)NC(=O)[C@@H]2Cc3ccccc3CN2)cc1,0
Cc1cc(=O)oc2cc(OCC#N)ccc12,0
COc1cccc2c(=O)c3ccoc3n(C)c12,7
CCCCCCCCCCCCCCCC(=O)NCCc1c[nH]c2ccccc12,2
Cc1ccc(-c2nnc3n2N=C(c2ccccc2)CS3)cc1,20
CCN(CC)S(=O)(=O)c1ccc(-c2nnc3sc4cccc(C)c4n23)cc1,21
CCC(C)[C@H](NC(=O)[C@@H]1Cc2c([nH]c3ccccc23)C2c3ccccc3C(=O)N21)C(=O)NCC1CCCO1 (stereo partly drawn),4
Cc1nc2c3ccccc3n(CC(=O)c3ccc(F)cc3)c(=O)n2n1,15
CCOC(=O)c1ccc2[nH]c3c(c2c1)CN(C)CC3,1
COc1ccc2[nH]c3c(c2c1)CCN1C(=O)N([C@@H](C)C(=O)NC2CCCCC2C)C(=O)[C@]31C (stereo partly drawn),5
CC1CCc2nn(CC(=O)NCCCN3CCOCC3)cc2C1 (stereo not drawn),9
COc1cccc(-c2nc(C(=O)NCCCN3CCOCC3)cc3c2[nH]c2ccccc23)c1,14
CC(Oc1ccc2c(-c3ccccc3)cc(=O)oc2c1)C(=O)N1CCC[C@@H]1C(N)=O (stereo partly drawn),0
O=C(O)c1ccc(O)c(O)c1,9
O=C(NCCN1CCN(C(=O)Nc2ccccc2)CC1)Nc1ccccc1,-4
CC(C)NC(=O)C1CCCN(c2nnc(-n3cccc3)s2)C1 (stereo not drawn),3
Cc1cc(CC(=O)O)n(C)c1C(=O)c1ccc(Cl)cc1,2
O=C(Cn1cnc2c(nnn2Cc2ccccc2)c1=O)c1ccccc1,2
CN(C)CCNC(=O)c1cc2c(=O)n(C)c3ccccc3c2n1C,20
CCCc1cc(=O)oc2cc(OCC(=O)N3C[C@H]4C[C@@H](C3)c3cccc(=O)n3C4)c(Cl)cc12,13
COc1cccc(CNS(=O)(=O)c2cc3c(cc2Cl)NC(=O)CO3)c1,8
CCn1c(=O)c2cc(C(=O)N3CCN(C)CC3)sc2c2ccccc21,2
COc1cc(OC)cc(C(=O)NCCn2ccc3ccccc32)c1,5
Cc1ccc(C(c2sc3ncnn3c2O)N2CCCCC2)cc1 (stereo not drawn),7
Cc1noc(C)c1S(=O)(=O)N1CCCC(C(=O)N2CCN(C3CCCCC3)CC2)C1 (stereo not drawn),0
CCOc1ccc(NC(=O)C2C3C=CC4(CN(C(C(=O)OC)C(C)C)C(=O)C24)O3)cc1 (stereo not drawn),8
Nc1nc2n(n1)C(c1c(F)cccc1Cl)CC(c1ccc(F)cc1)N2 (stereo not drawn),17

compound,Hedgehog
CCCSc1nnc(-c2c[nH]c3ccccc23)n1C,2
COc1cccc(C2CC(c3cccc(OC)c3)n3nc(N)nc3N2)c1 (stereo not drawn),10
O=C(Cn1ncc2c(=O)oc3ccccc3c21)N(Cc1ccco1)C1CCCCC1,5
Cn1c(=O)oc2cc(S(=O)(=O)NCCN3CCN(c4ccccc4)CC3)ccc21,7
OC[C@H]1O[C@H](OCc2ccccc2)[C@H](O[C@@H]2OC[C@@H](O)[C@H](O)[C@H]2O)[C@@H](O)[C@@H]1O,5
COc1ccccc1CCNC(=O)C(=O)NCC1OCCN1S(=O)(=O)c1cc(F)ccc1F (stereo not drawn),6
COc1ccccc1C(=O)OCn1nnc2ccccc2c1=O,-5
CCSc1nc2c(c(=O)[nH]1)C(C(C)C)C(C#N)=C(N)O2 (stereo not drawn),6
Cc1ccc(NC(=O)[C@@H]2CCC(=O)N2C2OC(=O)c3ccccc32)cc1Cl (stereo partly drawn),-3
Cc1c(C(=O)NCc2cccnc2)sc2nc(-c3ccccc3)cn12,7
CCCN(CCC)CCNC(=O)c1cc2c(=O)n(C)c3ccccc3c2n1C,7
Cn1c(=O)[nH]c(=O)c2c1nc(N1CCCCC1)n2CCSc1nc2ccccc2o1,19
O=C1c2cc(O)cc(O)c2C(=O)c2c1cc(O)c([C@@H](CO)CCO)c2O,12
COc1cccc(C2CC(c3ccc(C)cc3)n3ncnc3N2)c1 (stereo not drawn),9
Cc1cc(C)cc(C(=O)NCCn2cc(SCC(=O)N3CCOCC3)c3ccccc32)c1,-5
Cn1c(C(=O)NCCCN2CCCC2=O)cc2c(=O)n(C)c3ccccc3c21,10
O=C(c1cnc2sccn2c1=O)N(Cc1ccccc1)c1ccccn1,11
CC1CCN(Cc2ccc(NC(=O)C3CCN(c4nnc(-n5cccc5)s4)CC3)cc2)CC1,2
Cc1cccc(CCNC(=O)Cc2ccc(NC3=NC4CS(=O)(=O)CC4S3)cc2)c1 (stereo not drawn),5
CCc1nn(CC(=O)NCCCN2CCc3ccccc3C2)c(=O)c2cc3sccc3n12,16
CCN1CCN(CCCNC(=O)C2CCN(c3nnc(-n4c(C)ccc4C)s3)CC2)CC1,-6
CCN1CCSc2ccc(C(=O)NCc3ccccc3F)cc21,2
COc1ccc(N(CC(=O)NCc2ccco2)S(=O)(=O)c2c(C)nn(C)c2C)cc1,15
NS(=O)(=O)c1ccc(CCNC(=O)C(=O)NCC2OCCN2S(=O)(=O)c2cc(F)ccc2F)cc1 (stereo not drawn),5
COC(=O)c1c(NC(=O)C(C)(C)C)sc2c1CCN(Cc1ccccc1)C2,5
Cc1ccc2c(cnn2C(=O)CCCC(=O)NCc2ccc(F)cc2)c1,5
COc1ccc(Cc2nc(-c3ccc(-n4cccc4)cc3)no2)cc1OC,20
CC1=CC(=O)[C@H]2C(C)(C)CCC[C@]2(C)[C@@]1(O)CO,9
CCN1CCN(C(c2cccs2)C(C)NS(=O)(=O)c2ccc(F)cc2)CC1 (stereo not drawn),5
O=C1CCC(=O)N(O)CCCCCNC(=O)CCC(=O)N(O)CCCCNC(=O)CCC(=O)N(O)CCCCCN1,0

compound,Hedgehog
Cc1cc(C)c(S(=O)(=O)NCc2ccc3c(c2)cc(C)n3C)c(C)c1,7
O=C1c2ccccc2C(Nc2ccc3nc(-c4cccnc4)[nH]c3c2)N1Cc1ccco1 (stereo not drawn),7
COC(=O)c1ccc(CSc2nnc(-c3c[nH]c4ccccc34)n2C)o1,11
Cc1ccc(N2CCN(S(=O)(=O)N(C)C)CC2)c(C)c1,12
Cc1cc(C)c2nc(NNC(=O)c3ccc(S(=O)(=O)N4CCc5ccccc5C4)cc3)sc2c1,7
CCN1CCSc2ccc(C(=O)NCc3cccc(Br)c3)cc21,4
CC(Oc1cccc2cccnc12)C(=O)N/N=C/c1ccc2c(c1)OCO2 (stereo not drawn),2
Cc1noc(/C=C/c2ccco2)c1S(=O)(=O)N1CCC(C(=O)NC(C)c2ccccc2)CC1 (stereo not drawn),7
COC(=O)c1ccccc1NC(=O)c1cc(-c2ccc(O)cc2)on1,24
CCC1CCCCN1C(=O)CSc1nc(N)c(NC(=O)c2ccco2)c(=O)[nH]1 (stereo not drawn),4
COc1cc(CCc2ccccc2)c(C(=O)O)c(O)c1CC=C(C)C,5
COC(CNC(=O)C(=O)NCC1OCCN1C(=O)c1ccc(Cl)cc1)OC (stereo not drawn),3
Cc1oc(-c2ccc(Cl)cc2)nc1CN1CCC(C(=O)NCCCN2CCCC2=O)CC1,5
Cc1cccc(CCNC(=O)c2cccc(NC3=NC4CS(=O)(=O)CC4S3)c2)c1 (stereo not drawn),7
CNc1ccccc1,-2
NC(=O)C1CCN(C(=O)c2cc3ccccn3n2)CC1,5
CCOc1ccccc1/C=N/NC(=O)c1nnn(-c2nonc2N)c1CN1CCCCCC1,2
Cc1ccc(C(=O)c2cc3c(cc2N)OCCO3)cc1,15
CCC(C)(C)C(=O)O,11
CC1=C(C(N)=O)C(c2ccncc2)n2nc(-c3ccccc3Cl)nc2N1 (stereo not drawn),15
O=C(O)c1ccn[nH]1,5
c1ccc2c(c1)nc(N1CCOCC1)c1nnnn12,-1
CCCCN(CC)CCNC(=O)c1cc2c(=O)n(C)c3ccccc3c2n1C,0
O=C(NC1CC1)c1ccc(CS(=O)c2ccccc2)o1 (stereo not drawn),0
COc1cccc(NC(=O)c2nnn(CCc3ccccc3)c2N)c1,22
Cc1cc2c(cc1S(=O)(=O)CCC(=O)N1CC(C)CC(C)C1)OCC(=O)N2 (stereo not drawn),15
CC1CN(C(=O)CCC(=O)N2CCOCC2)c2ccccc2O1 (stereo not drawn),3
CCc1cccc(C)c1NC(=S)NCc1ccc2[nH]c(C)cc2c1,7
CC1CCC(NC(=O)Cn2c3c(c(-c4ccccc4Cl)cc2=O)CCC3)CC1 (stereo not drawn),3
COc1ccc(CCNC(=O)Cc2ccc(NC3=NC4CS(=O)(=O)CC4S3)cc2)c(OC)c1 (stereo not drawn),3

In a second layout: entries from further up.
> CCCN(CCC)CCNC(=O)c1cc2c(=O)n(C)c3ccccc3c2n1C
  Hedgehog: 7
> Cn1c(=O)[nH]c(=O)c2c1nc(N1CCCCC1)n2CCSc1nc2ccccc2o1
  Hedgehog: 19
> O=C1c2cc(O)cc(O)c2C(=O)c2c1cc(O)c([C@@H](CO)CCO)c2O
  Hedgehog: 12
> COc1cccc(C2CC(c3ccc(C)cc3)n3ncnc3N2)c1 (stereo not drawn)
  Hedgehog: 9

The list continues:
compound,Hedgehog
CC1CCCCC1NS(=O)(=O)c1ccc(S(=O)(=O)N2CCN(CCC#N)CC2)cc1 (stereo not drawn),12
Cn1cc(SCC(=O)N2CCOCC2)c2ccccc21,4
CCOC(=O)c1[nH]c(C)c(C(=O)NCc2cccnc2)c1C,7
C=CCCCCCCCC(=O)OC,7
COc1ccccc1OCC(O)CN1C(=O)NC(C)(C)C1=O (stereo not drawn),0
Cc1cc2[nH]c(=O)c(=O)[nH]c2cc1S(=O)(=O)N1CCN(c2cccc(Cl)c2)CC1,2
COc1cc(OC)cc(-c2nnc(SCC(=O)N3CCCCC3)o2)c1,11
COc1ccccc1N1CCN(C(=O)CCCCn2c(=O)[nH]c3ccsc3c2=O)CC1,5
CCOC(=O)c1[nH]c(C)c(C(=O)Nc2ccc(F)cc2)c1C,8
COc1ccc(N(CC(=O)Nc2ccc(C)cn2)S(=O)(=O)c2c(C)nn(C)c2C)cc1,2
COC(=O)NCC(c1cccnc1)N1CCOCC1 (stereo not drawn),2
O=C(c1ccc(-c2ccccc2)cc1)N1CCN(c2nc3ccccc3o2)CC1,8
CCOC(=O)C1CCN(C(=O)CS(=O)Cc2nc(-c3ccc(C)cc3)oc2C)CC1 (stereo not drawn),4
CC(=O)[C@H]1CC[C@H]2[C@@H]3CC=C4C[C@@H](O)CC[C@]4(C)[C@H]3CC[C@]12C,4
Cc1ccc(-c2nc(CS(=O)(=O)CC(=O)Nc3cc(F)ccc3F)c(C)o2)cc1,3
O=C(O)C1CC=CCC1C(=O)NCCc1csc(-c2ccccc2)n1 (stereo not drawn),4
Cc1csc2nc(CCNS(=O)(=O)c3cccs3)cn12,4
Cc1cccc(NC(=O)Cc2ccc(NC3=NC4CS(=O)(=O)CC4S3)cc2)c1 (stereo not drawn),5
Cc1csc2nc(CNS(=O)(=O)c3ccc4c(c3)OCCO4)cn12,9
CCOc1ccc(NS(=O)(=O)c2c(C)nc3sccn3c2=O)cc1,4
Cc1onc(-c2ccccc2Cl)c1C(=O)Nc1nnc(C(C)C)s1,2
CCCCCC(NC(=O)C1CCN(C(=O)[C@@H](NS(=O)(=O)c2ccc(C)cc2)C(C)C)CC1)C(=O)O (stereo partly drawn),3
CC(C)=CCC/C(C)=C/COc1c2occc2cc2ccc(=O)oc12,5
Cc1c(CCC(=O)NC2CC2)c(=O)oc2cc(O)ccc12,3
COc1cc(OC)c(C2N(c3ccc(Cl)cc3)C(=O)C3CCCN32)cc1OC (stereo not drawn),13
COC(=O)C1CCN(C(c2ccc(OC)c(OC)c2)c2sc3nc(C)nn3c2O)CC1 (stereo not drawn),4
COc1ccc(CNS(=O)(=O)c2cc3c(cc2C)N(C)CCO3)cc1,11
Cn1c(=O)c2c(SCc3c(F)cccc3Cl)nc(CC(C)(C)C)nc2n(C)c1=O,5
CCOc1ccccc1C(=O)Nc1nnc(C(C)C)s1,2
CN1CCC23c4ccccc4NC1C21CCN(C)C3Nc2ccccc21,-2

Pulled one by one from the list above (5):
compound,Hedgehog
Cc1cc2[nH]c(=O)c(=O)[nH]c2cc1S(=O)(=O)N1CCN(c2cccc(Cl)c2)CC1,2
O=C(c1ccc(-c2ccccc2)cc1)N1CCN(c2nc3ccccc3o2)CC1,8
C=CCCCCCCCC(=O)OC,7
Cc1cccc(NC(=O)Cc2ccc(NC3=NC4CS(=O)(=O)CC4S3)cc2)c1 (stereo not drawn),5
CCOc1ccc(NS(=O)(=O)c2c(C)nc3sccn3c2=O)cc1,4

Continued.
compound,Hedgehog
CCCc1cc(C(=O)NCCc2ccc(OC)c(OC)c2)no1,3
O=C1/C(=C/c2ccc3c(c2)OCO3)Oc2cc(OCC(=O)N3CCC[C@H]3C(=O)O)ccc21,8
Cc1cccc(N(C)C(=O)CCS(=O)(=O)c2cc3c(cc2Cl)NC(=O)CO3)c1,10
Cc1cccc2cccnc12,7
CCOC(=O)N1CCC(NC(=O)c2ccc3c(c2)N(Cc2ccc(F)cc2)CCS3)CC1,20

Screening data: PubChem BioAssay, Broad Institute

A portion of the library; the hit share may differ from the screen's.
